# High-throughput results deposited in PubChem BioAssay by several laboratories.
# Myeloid diff MLP = compounds promoting myeloid differentiation; actives 1% (n = 360,000); calls only at 10 µM; AID 624256; ER-HoxA9 myeloid progenitors, lysozyme-GFP differentiation, flow cytometry;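 active means normalized GFP-positive differentiation at or above the plate's own cutoff, the solvent-only control mean plus 3 SD; inconclusive means no clear call, values can overlap the other calls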;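 further: cells exposed to compound for four days before flow analysis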
# NTR1 ag = NTR1-driven beta-arrestin-GFP spot formation – imaging, U2OS cells, high content, primary screen (AID 493036). P30989. agonist mode. activation, % at 20 µM. actives 0.17% (n = 330,000);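 active means activation at or above 40% of the spot to cytoplasm intensity ratio, with at least 20 cells analyzed; inconclusive means wells under 20 cells, flagged as cytotoxic or low count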;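 further: 0% = DMSO without peptide and 100% = 100 nM NTR1 peptide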
# Target sequence (P30989 whole entry, looked up): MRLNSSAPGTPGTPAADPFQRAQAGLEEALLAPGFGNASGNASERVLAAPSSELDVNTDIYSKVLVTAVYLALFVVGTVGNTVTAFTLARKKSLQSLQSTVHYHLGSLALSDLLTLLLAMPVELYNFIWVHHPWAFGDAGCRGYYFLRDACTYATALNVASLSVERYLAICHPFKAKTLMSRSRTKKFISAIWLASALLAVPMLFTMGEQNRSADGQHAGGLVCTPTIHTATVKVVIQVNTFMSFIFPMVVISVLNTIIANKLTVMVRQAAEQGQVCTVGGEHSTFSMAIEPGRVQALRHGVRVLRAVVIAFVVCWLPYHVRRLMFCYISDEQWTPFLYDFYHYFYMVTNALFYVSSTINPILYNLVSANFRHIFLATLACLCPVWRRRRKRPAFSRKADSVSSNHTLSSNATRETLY
# GPR55 beta-arrestin = selective activators of receptor GPR55 – imaging, U2OS cells, beta-arrestin-GFP redistribution, primary screen (AID 1961). actives 0.048% (n = 290,000). one-dose activation, % at 10 µM; EC50 in µM for titrated hits. U2OS GPR55 beta-arrestin-GFP redistribution imaging; higher % means a stronger effect;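 active means activation above 40% with more than 50 cells counted in the well; inconclusive means wells holding fewer than 50 cells, flagged as toxic or sparse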;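 further: U2OS osteosarcoma cells stably expressing GPR55 and beta-arrestin-GFP; plate controls were DMSO negative control for no effect and LPI positive control for full effect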
# GPR55 LPI antagonism = inhibition of LPI-stimulated GPR55 beta-arrestin translocation – imaging, U2OS, beta-arrestin-GFP, LPI agonist, primary screen (AID 2013); U2OS GPR55 beta-arrestin-GFP translocation imaging, LPI antagonism; higher % means a stronger effect; inhibition, % at 10 µM; hits with a dose series show IC50 in µM; actives 0.13% (n = 290,000);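 active means spots per cell inhibited over 60%, with over 100 cells counted and total cytoplasm intensity under 500,000; inconclusive means wells with under 100 cells, flagged as likely toxic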;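 further: U2OS cells stably carrying GPR55 and arrestin-GFP stimulated by 5 µM LPI near EC80; imaged beta-arrestin-GFP aggregate spots per cell after agonist stimulation; plate controls were LPI-stimulated DMSO wells for no effect and DMSO wells without LPI for full effect; some results filed as inactive read as strong as hits; confirmed hits need IC50 under 10 µM and bright autofluorescent wells are also inconclusive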
# T cell modulator = T cell immune modulators affecting CD8 T cell-vesicle binding; calls only at 7 µM; 2C CD8+ T cell-vesicle binding, flow cytometry; stronger effect = lower value; AID 2052; actives 0.068% (n = 330,000);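 active means response, share of CD8 T cells binding vesicles, and their 90th percentile fluorescence all below set limits, cut at about 80% in these data, passing the limit was not always enough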
#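 Material: 2C TCR transgenic mouse naive CD8+ T cells, MACS-purified. Also added: QL9-charged Drosophila Ld/ICAM-1/B7-1 vesicles. Timing: binding 1.5 h at 37 °C. Measured by: high-throughput flow cytometry with anti-B7-1 and anti-CD8 staining. Read-out: percent CD8+ FL2 mean versus row control. Controls: Unloaded micro-vesicles (low), QL9 vesicles with 0.7% DMSO (high).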
# KOR beta-arrestin = kappa opioid receptor activators – cell-based, luminescence, uHTS, primary screen (AID 1777); KOR beta-arrestin recruitment, luminescence; higher % means a stronger effect; activation, % at 10 µM; hits with a dose series show EC50 in µM; actives 0.02% (n = 280,000); in the data active means activation above about 50%, passing the limit was not always enough; further: a part of the inactive calls stands beside numbers as strong as those of hits
# T cell modulator vesicle-bound % = also measured in T cell modulator; calls as there; double positive events, %; measured here: CD8+ vesicle-bound cell fraction;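 binding gate set so that unloaded-vesicle control wells show 10% double positive cells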
# NTR1 ag cell count 20 µM = second read-out of NTR1 ag, no call of its own (marks repeat the call); cell count; measured here: cell count, cytotoxicity flag
# Myeloid diff MLP GFP+ MAC1+ % = second read-out of Myeloid diff MLP, no call of its own (marks repeat the call); GFP+ MAC1+ double positive, %; measured here: differentiation confirmed by MAC1 staining
# The depositor's hits bear a star; i = inactive; ? = inconclusive; . = no result given; + = active, no number.
SMILES,Myeloid diff MLP,Myeloid diff MLP GFP+ MAC1+ %,NTR1 ag,NTR1 ag cell count 20 µM,GPR55 beta-arrestin,GPR55 LPI antagonism,T cell modulator,T cell modulator vesicle-bound %,KOR beta-arrestin
CCOc1ccc(N2CC(C(=O)OC)CC2=O)cc1 (stereo not drawn),i,0.6,-0.7,59,0.2%,4%,i,51,-2.7%
Cc1ccc(N2C(=O)C3C4C=CC(C4)C3C2=O)cc1C (stereo not drawn),i,0.6,-0.3,49,-0.1%,23%,i,2,4.5%
CC(=O)c1cn(CC(=O)Nc2c(C)cccc2C)c2ccccc12,i,0.9,0.2,60,-0.1%,3%,i,47,3.4%
O=C(O)CSc1nc(C(F)(F)F)cc(=O)n1-c1ccccc1,i,1.0,-1.9,109,-0.2%,5%,i,30,-0.1%
COc1ccc(C(=O)Nc2ccc(Cl)cc2C(=O)NCCN2CCOCC2)cc1,i,0.5,3.1,74,0.0%,1%,i,45,1.0%
CCOc1cc(NC(=S)NCC2CCCO2)c(OCC)cc1NC(=O)c1ccccc1C (stereo not drawn),+,3.1*,10,80,-0.1%,21%,i,40,1.5%
COCCn1c(C)cc(C2=NNC(=Nc3ccc(F)cc3)SC2)c1C,i,14,-1.4,73,0.3%,7%,i,15,-3.1%
Cc1ccc(C(=O)NC(=S)Nc2ccccc2C(F)(F)F)cc1C,i,0.4,4.6,23,-0.1%,10%,i,49,6.1%
Cc1c(NC(=O)CCCOc2ccccc2)cccc1[N+](=O)[O-],i,1.3,-5.5,92,0.2%,-4%,i,43,4.8%
CCOC(=O)C1=C(C)N(Cc2ccccc2)C(=O)NC1c1ccc(OC)cc1 (stereo not drawn),i,0.8,-4.6,103,0.0%,1%,i,17,4.6%
O=C(O)CCn1nnc(-c2cccs2)n1,i,1.0,2.0,76,0.3%,9%,i,38,-3.6%
CCN(/C=N/c1sc2c(c1C#N)CCCCC2)CC,i,0.4,-0.5,39,-0.1%,.,i,28,0.7%
N#CCCn1nnc2ccccc21,i,0.7,-2.3,96,0.2%,-4%,i,13,5.0%
Cc1nnc2c(Oc3ccccc3)nc3ccccc3n12,i,1.0,1.9,50,-0.1%,12%,i,29,1.5%
C=CCNC(=O)c1cc(Cl)ccc1Cl,i,1.5,-3.2,94,-0.1%,10%,i,46,6.2%
CC(C)c1cc(Nc2cccc(O)c2)cc(C(C)C)c1O,.,.,1.8,34,-2.3%,7%,i,32,-1.4%
CCOC(=O)/C=C1\SCC(=O)N1CC(=O)Nc1ccc2c(c1)CCC2,i,2.2,-0.4,44,0.0%,0%,i,26,0.5%
N#Cc1ccc(CNc2cnccn2)cc1,i,8.6,0.4,71,-0.1%,-1%,.,.,0.4%
COc1ccc(N2CCN(C(=O)CC3NC4CCCCC4NC3=O)CC2)cc1 (stereo not drawn),i,1.3,-1.4,77,0.2%,-5%,i,36,-3.0%
O=C(Cc1ccccc1)N[C@@H](Cc1ccccc1)c1nc2ccccc2[nH]1,i,0.8,5.6,47,-0.1%,13%,i,12,1.2%
Cc1ccc(NC(=O)Cc2ncc(C(F)(F)F)cc2Cl)cc1Cl,i,0.5,0.3,48,0.0%,3%,i,19,0.0%
O=C(NN=C1C2CC3CC(C2)CC1C3)c1cc(Cl)ccc1O,i,0.5,0.6,47,0.0%,12%,i,40,-0.2%
C=C(C)c1cccc(C(C)(C)NC(=O)N2CCN(C/C=C/c3ccccc3)CC2)c1,i,0.4,1.6,64,-0.1%,2%,i,45,-3.0%
Cc1ccccc1Nc1nnc(SCC(=O)NCc2ccco2)s1,i,0.7,-1.1,39,-0.1%,11%,i,34,5.0%
Cc1cc(=O)oc2cc(OCC(=O)Nc3nnc(CC(C)C)s3)ccc12,i,0.4,-1.2,61,0.0%,5%,i,41,-0.9%
Oc1ccc(C(=S)N2CCCCCC2)cc1,i,0.9,0.6,77,-0.1%,-3%,i,42,1.1%
CCc1ccccc1NC(=O)C(C)n1nc([N+](=O)[O-])c(Br)c1C (stereo not drawn),i,5.7,3.2,76,-0.1%,2%,i,14,16%
Cc1ccc(-c2noc(/C=C/c3ccccc3)n2)cc1,i,10,4.3,56,-0.1%,5%,i,47,1.9%
CCc1ccc(-n2c(=O)c3c(C)c(C(=O)N(C)C)sc3n(CC(=O)NCc3ccco3)c2=O)cc1,i,4.3,0.5,78,0.0%,14%,i,9,0.6%
O=[N+]([O-])c1ccc(C2CCCC/C2=N/OCc2ccccc2F)c([N+](=O)[O-])c1 (stereo not drawn),i,0.9,2.0,63,0.5%,31%,i,47,2.5%
Cc1cc(C)c(S(=O)(=O)NCC23C=CC(O2)C2C(=O)N(c4ccccc4)C(=O)C23)c(C)c1 (stereo not drawn),i,0.5,0.4,98,-0.1%,4%,i,15,4.2%
Cc1ccc(N2CCN(C(=O)c3ccccc3NC(=O)/C=C\C(=O)O)CC2)cc1,i,0.5,0.1,60,-0.1%,16%,i,4,2.0%
Cc1ccc(-n2nc(-c3ccc(N)cc3)cc2N)cc1,i,1.4,2.7,49,-0.1%,4%,i,25,-2.7%
CC(C)c1ccc(N=c2c([N+](=O)[O-])nn(-c3ccc4c(c3)OCCO4)n2O)cc1,i,3.1,16,42,-0.1%,25%,i,31,1.3%
CCCCCOCC(O)CCC(=O)NN (stereo not drawn),i,1.0,0.2,39,0.2%,-1%,i,27,15%
CCOc1ccc(/C=N/n2c(SC)nnc2-c2ccccc2)cc1OCC,i,0.2,1.3,85,-2.3%,9%,i,19,-0.5%
O=C(CCS(=O)(=O)c1ccc(Br)cc1)N1CCN(c2ccccc2F)CC1,i,0.4,-0.8,56,-0.1%,0%,i,39,-2.7%
CCOC(=O)Nc1sc(C(=O)N(C)C)c(C)c1C(=O)OCC,i,0.9,1.1,51,0.0%,5%,i,16,-2.0%
CCCCC[n+]1ccn(-c2nc3ccccc3nc2[N-]S(=O)(=O)c2ccc(C)cc2)c1,i,1.8,-1.4,65,-0.1%,9%,i,47,-4.1%
COc1ccc(C(=O)c2ccc(N(C)C)cc2)c(OC)c1,.,.,2.7,78,0.3%,8%,i,62,0.7%

# Nothing new here: an excerpt of the list.
SMILES,Myeloid diff MLP,Myeloid diff MLP GFP+ MAC1+ %,NTR1 ag,NTR1 ag cell count 20 µM,GPR55 beta-arrestin,GPR55 LPI antagonism,T cell modulator,T cell modulator vesicle-bound %,KOR beta-arrestin
CCOc1ccc(N2CC(C(=O)OC)CC2=O)cc1 (stereo not drawn),i,0.6,-0.7,59,0.2%,4%,i,51,-2.7%
Cc1ccc(N2C(=O)C3C4C=CC(C4)C3C2=O)cc1C (stereo not drawn),i,0.6,-0.3,49,-0.1%,23%,i,2,4.5%

# (next part)
SMILES,Myeloid diff MLP,Myeloid diff MLP GFP+ MAC1+ %,NTR1 ag,NTR1 ag cell count 20 µM,GPR55 beta-arrestin,GPR55 LPI antagonism,T cell modulator,T cell modulator vesicle-bound %,KOR beta-arrestin
COC(=O)c1ccc(OCC2c3cc(OC)c(OC)cc3CCN2C(=O)c2ccco2)cc1 (stereo not drawn),i,0.8,1.4,43,-0.1%,14%,i,16,4.3%
CCC(Sc1ccc2nnc(-c3ccc(F)cc3)n2n1)C(=O)O (stereo not drawn),i,4.3,-0.5,72,-0.3%,5%,i,47,5.5%
O=C(OCC(=O)N1CCOCC1)c1ccc(Cl)nc1,i,0.8,-1.9,69,0.0%,14%,i,48,-4.4%
Cc1[nH]n(-c2ccccc2)c(=S)c1C=Nc1cccc([N+](=O)[O-])c1,i,0.6,1.8,58,-0.1%,6%,i,66,-0.2%
COc1ccc(/C=N/n2c(C)nnc2C)c(OC)c1OC,i,0.8,0.0,32,-0.1%,2%,i,54,4.4%
COc1ccc(C(=O)c2oc3nc(C)cc(C)c3c2N)cc1,i,0.6,0.3,51,-0.1%,2%,i,49,-2.8%
Cc1ccc(S(=O)(=O)N2CCC(=O)N2)cc1,i,2.1,0.1,94,-0.1%,-13%,i,48,5.7%
COC(=O)c1cc(OC)ccc1-c1ccc(OC)cc1,i,8.5,-1.1,43,-0.1%,.,i,17,-3.6%
O=C(COC(=O)C1CCN(S(=O)(=O)c2cc([N+](=O)[O-])ccc2Cl)CC1)Nc1ncc(Cl)cc1Cl,i,0.5,-0.2,103,-0.1%,-20%,i,18,5.1%
Cc1ccc(-c2cc(N)n(-c3ccccc3)n2)cc1,i,1.0,-0.1,95,-0.1%,.,i,39,5.0%
COc1cccc(CNCCc2c[nH]c3ccccc23)c1OCc1ccccc1F,?,.,6.9,45,-0.1%,53%,i,21,-3.3%
C=CCOc1c2ccc(C(=O)NCc3ccccc3OC)cc2nn1C,i,0.8,1.1,91,0.0%,7%,i,46,8.4%
CCOc1ccccc1C(=O)N1CCOCC1,i,1.0,2.0,73,-0.1%,0%,i,25,-3.7%
Cc1cc(C(F)F)n2ncc(C(=O)O)c2n1,i,0.4,5.3,40,0.0%,-9%,i,19,1.8%
Cc1c(NCc2cc(Cl)ccc2O)c(=O)n(-c2ccccc2)n1C,i,0.9,0.1,41,-0.1%,2%,i,42,0.4%
Cc1cccc(C)c1NC(=O)CSc1nnc(-c2ccccc2)n1Cc1ccc2c(c1)OCO2,i,1.7,5.2,77,-0.1%,2%,i,22,3.1%
O=C(Nc1ccc(/C=C/c2nc3ccccc3o2)cc1)c1ccc(F)cc1,.,.,8.2,44,0.0%,-3%,i,36,-1.6%
N#CC1=C(N)Oc2cc(Nc3ccccc3)ccc2C1c1ccncc1 (stereo not drawn),i,2.1,7.5,28,-0.1%,41%,i,21,0.6%

# Molecules from the list above containing an aryl methoxy group (ten):
SMILES,Myeloid diff MLP,Myeloid diff MLP GFP+ MAC1+ %,NTR1 ag,NTR1 ag cell count 20 µM,GPR55 beta-arrestin,GPR55 LPI antagonism,T cell modulator,T cell modulator vesicle-bound %,KOR beta-arrestin
COc1ccc(C(=O)Nc2ccc(Cl)cc2C(=O)NCCN2CCOCC2)cc1,i,0.5,3.1,74,0.0%,1%,i,45,1.0%
CCOC(=O)C1=C(C)N(Cc2ccccc2)C(=O)NC1c1ccc(OC)cc1 (stereo not drawn),i,0.8,-4.6,103,0.0%,1%,i,17,4.6%
COc1ccc(N2CCN(C(=O)CC3NC4CCCCC4NC3=O)CC2)cc1 (stereo not drawn),i,1.3,-1.4,77,0.2%,-5%,i,36,-3.0%
COc1ccc(C(=O)c2ccc(N(C)C)cc2)c(OC)c1,.,.,2.7,78,0.3%,8%,i,62,0.7%
COC(=O)c1ccc(OCC2c3cc(OC)c(OC)cc3CCN2C(=O)c2ccco2)cc1 (stereo not drawn),i,0.8,1.4,43,-0.1%,14%,i,16,4.3%
COc1ccc(/C=N/n2c(C)nnc2C)c(OC)c1OC,i,0.8,0.0,32,-0.1%,2%,i,54,4.4%
COc1ccc(C(=O)c2oc3nc(C)cc(C)c3c2N)cc1,i,0.6,0.3,51,-0.1%,2%,i,49,-2.8%
COC(=O)c1cc(OC)ccc1-c1ccc(OC)cc1,i,8.5,-1.1,43,-0.1%,.,i,17,-3.6%
COc1cccc(CNCCc2c[nH]c3ccccc23)c1OCc1ccccc1F,?,.,6.9,45,-0.1%,53%,i,21,-3.3%
C=CCOc1c2ccc(C(=O)NCc3ccccc3OC)cc2nn1C,i,0.8,1.1,91,0.0%,7%,i,46,8.4%

# These rows are one share of the data. The share of hits here may be higher or lower than overall.
